Calb biofilm kill = mixtures killing C. albicans biofilm; C. albicans biofilm persisters + clotrimazole, fluorescence viability; primary screen in compound mixtures of four per well; inhibition, % at 7.6 µM; 120,000 tested, 0.02% active; AID 1242;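 active means inhibition above 30.3% in the primary screen of four-compound pools, then above 30% when the compound was retested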;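 further: compounds exposed to preformed 24 h biofilms for 48 h; the number belongs to the whole pool; some results filed as inactive read as strong as hits; inactives centre near 12; 0% = biofilm with clotrimazole alone and 100% = kill control; retested singly at about 60 µM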
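Test system: C. albicans biofilms. Buffer or medium: RPMI/MOPS medium, pH 7.0. Timing: 48 h compound exposure at 37 °C. Technique: Alamar Blue fluorescence. Evaluation: percent inhibition of biofilm viability.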
* marks the source's active call; other numbers are inactive results. A portion of the library; count on the stated rates, not on these rows.

Structure	Calb biofilm kill
CC(NC(=O)COC(=O)[C@@H]1CCCN1S(=O)(=O)c1ccccc1F)C12CC3CC(CC(C3)C1)C2 (stereo partly specified)	6
Cc1cccc(C)c1NC(=O)C1(NC(=O)C2CCC(=O)N2)CCCCC1 (stereo unspecified)	9
CN(c1ccccc1)S(=O)(=O)c1cccc(NC(=O)CSc2nncn2C)c1	16
CCOC(=O)c1c(NC(=S)Nc2ccccc2C)sc2c1CCC2	3
Cc1ccc(S(=O)(=O)NCC(=O)OCc2ccccc2Br)cc1	8
Cc1ccccc1NC(=O)CS(=O)(=O)c1cn(CC(=O)N2CCOCC2)c2ccccc12	18
COc1ccccc1NS(=O)(=O)c1cc(NC(=O)c2ccc(Cl)nc2)ccc1Cl	14
O=C(Nc1ccc(S(=O)(=O)N2CCCC2)cc1)c1ccc(CN2CCc3ccccc3C2)cc1	-3
COc1cc(OC)cc(C(=O)Oc2c(CN3CCOCC3)cc(Cl)c3cccnc23)c1	16
Cc1cccc(CN2CCN(C(=O)CCc3nnc(C4CCCCC4)o3)CC2)c1	-6
COc1ccc(-c2nc3ncccn3c2Nc2ccccc2)cc1	17
Cc1nn(CCCC(=O)NCCc2ccccc2)c(C)c1[N+](=O)[O-]	16
Cc1ccc(NC(=O)NNC(=O)C2CCN(Cc3ccc(F)cc3Cl)CC2)cc1	14
O=C(Cn1cnc2ccccc21)N1CCN(S(=O)(=O)c2ccccc2)CC1	5
Nc1ccc(C(=O)N/N=C\C=C\c2cccc([N+](=O)[O-])c2)cc1	9

The closing 4 compounds of the section before come first, to join the parts:
Structure	Calb biofilm kill
Cc1nn(CCCC(=O)NCCc2ccccc2)c(C)c1[N+](=O)[O-]	16
Cc1ccc(NC(=O)NNC(=O)C2CCN(Cc3ccc(F)cc3Cl)CC2)cc1	14
O=C(Cn1cnc2ccccc21)N1CCN(S(=O)(=O)c2ccccc2)CC1	5
Nc1ccc(C(=O)N/N=C\C=C\c2cccc([N+](=O)[O-])c2)cc1	9
O=C(O)CN1C(=O)C2C3CC(C2C1=O)C1C(c2ccccc2)c2sc(=O)[nH]c2SC31 (stereo unspecified)	10
O=C(CCCOc1ccc(Cl)cc1Cl)N1CCc2ccccc2C1	7
COc1ccc(C2NC(=S)NC(C)=C2C(=O)Nc2ccccn2)cc1 (stereo unspecified)	4
CCOCCCNC(=O)CCc1ccc(S(=O)(=O)Nc2ccc(C)cc2)cc1	17
NC(=O)CC[C@H](NC(=O)c1ccc(F)cc1)C(=O)OCC(=O)Nc1c(F)c(F)c(F)c(F)c1F	6
COc1cccc(/C=N/Nc2ccc(C(=O)O)cc2)c1O	16
C=C(C)COc1ccc(-c2[nH]ncc2-c2ccc(OC)cc2)c(O)c1	23
CCc1nc2sc3ccccc3c(=O)c2c(=O)n1Cc1ccc(OC)cc1	29
Cc1cc(N/N=C/c2ccc(O)cc2O)nc(-c2ccccc2O)n1	10
O=C(/C=C/c1ccco1)Nc1nc(-c2ccccn2)cs1	11
COc1ccc(NC(=O)CCN2C(=O)c3ccc([N+](=O)[O-])cc3C2=O)c(OC)c1	-6
CCCc1c(C(=O)Nc2ccc(F)cc2C)cnn1-c1ccccc1	21
Cn1c(SCC(=O)Nc2cccc(S(=O)(=O)NC3=NCCCCC3)c2)nnc1-c1ccncc1	11
CN(c1ccccc1)S(=O)(=O)c1cccc(NC(=O)CSc2nnc(N)s2)c1	3
Cc1cc(C)n(-c2ccc3nncn3n2)n1	15

The closing 2 compounds of the part above come first, to join the parts:
Structure	Calb biofilm kill
CN(c1ccccc1)S(=O)(=O)c1cccc(NC(=O)CSc2nnc(N)s2)c1	3
Cc1cc(C)n(-c2ccc3nncn3n2)n1	15
CCn1c(-c2csc(C(C)C)c2)n[nH]c1=S	16
CN(C(=O)c1ccc(C#N)cc1)c1nnc(-c2ccccn2)s1	18
O=C(CNc1ccc(Cl)cc1)c1ccc(Br)cc1	15
Cc1c(-c2ccc(Cl)cc2)[n+](=O)c(-c2ccccc2)cn1[O-]	28
Fc1cnc(N2CCOCC2)nc1N1CCOCC1	10
Cc1ccc(C2CC2c2n[nH]c(=S)n2-c2cccc(C)c2)cc1 (stereo unspecified)	3
CCOC(=O)C1CCCN(C2CCN(Cc3nc(Cc4ccccc4)no3)CC2)C1 (stereo unspecified)	-2
CC1=NNC(=O)c2ccccc2O1	6
O=[N+]([O-])c1cccc(C(=S)N2CCN(c3ccc(F)cc3)CC2)c1	18
Cc1c(Cl)cccc1NC(=S)NCCN1CCOCC1	12
CCOCCN(C(=O)c1ccccc1Cl)c1ccccc1	25
COc1ccc(CCN2C(=O)N(c3ccc(OC)cc3)C(=O)C2CC(=O)Nc2ccc(OC)cc2)cc1 (stereo unspecified)	12
CCCn1c(-c2ccc[nH]c2=O)nc2cc(C)c(C)cc21	5
COc1ccc(N2CCN(C(=O)C3CCN(S(=O)(=O)c4ccc(C)cc4)CC3)CC2)cc1	26
CCNS(=O)(=O)c1ccc(CCC(=O)NCCc2ccc(OC)cc2)cc1	18

An excerpt from above in order of formula weight, ascending.
Structure	Calb biofilm kill
C=C(C)COc1ccc(-c2[nH]ncc2-c2ccc(OC)cc2)c(O)c1	23
CCc1nc2sc3ccccc3c(=O)c2c(=O)n1Cc1ccc(OC)cc1	29
CCNS(=O)(=O)c1ccc(CCC(=O)NCCc2ccc(OC)cc2)cc1	18

(next part)
> CCCCCC(=O)Nc1ccc(Cc2ccncc2)cc1
  Calb biofilm kill: 4
> Oc1ccc(/C=N/n2cnn(Cc3ccccc3Cl)c2=S)c(O)c1
  Calb biofilm kill: 13
> CN(CCO)S(=O)(=O)c1ccc2c(c1)C(=NO)c1cc(S(=O)(=O)N(C)CCO)ccc1-2
  Calb biofilm kill: 8
> COc1ccc(OC)c(N2C(=O)CC(Cc3ccc(C)cc3)C2=O)c1 (stereo unspecified)
  Calb biofilm kill: 5
> c1coc(CNc2ncnc3[nH]ncc23)c1
  Calb biofilm kill: 13
> CCN1C(=O)/C(=C\N(C)C)NC1=S
  Calb biofilm kill: 14
> C[n+]1cccc(/C=N/NC(=O)CC23CC4CC(CC(C4)C2)C3)c1
  Calb biofilm kill: 14
> O=C(/C=C/c1ccccc1[N+](=O)[O-])NCc1cccnc1
  Calb biofilm kill: 20
> O=C(CSc1nnc(-c2ccc(C(F)(F)F)cn2)s1)c1ccc(Cl)cc1
  Calb biofilm kill: 16
> CCC1=NN(C(=O)c2cccnc2)C(O)(C(F)(F)F)C1 (stereo unspecified)
  Calb biofilm kill: 13

> Cc1c(C(=O)OCC(=O)Nc2ccc(C(N)=O)cc2)cccc1[N+](=O)[O-]
  Calb biofilm kill: 13
> Cc1ccc(C2CC(=O)NC(SCC(N)=O)=C2C#N)s1 (stereo unspecified)
  Calb biofilm kill: 7
> COc1ccc(N(CC(=O)N/N=C/c2ccc(OC3CSC3)cc2)S(=O)(=O)c2ccccc2)cc1
  Calb biofilm kill: 7
> Cc1c(-c2cccc(Cl)c2)nc2ccccc2c1C(=O)OC/C(O)=C(\C#N)c1nc2ccccc2[nH]1
  Calb biofilm kill: 9
> O=C(Nc1ncc(Cc2ccc(SC(F)F)cc2)s1)c1ccc(OC(F)F)cc1
  Calb biofilm kill: 8
> Cc1ccc(N/C=C/C(=O)c2ccco2)c(O)c1
  Calb biofilm kill: 20
> N/C(=N\OC(=O)c1cccc2ccccc12)c1ccncc1
  Calb biofilm kill: 15
> CC(=O)Nc1cccc(/C(C)=N/NS(=O)(=O)c2ccccc2)c1
  Calb biofilm kill: 10
> CCC(=O)N1CCN(c2ccc(NC(=O)c3ccc(C#N)cc3F)cc2Cl)CC1
  Calb biofilm kill: -8
> CCCCN1C(=S)SC(C)(C)C1/[N+]([O-])=C/c1ccc(S(=O)(=O)NC)cc1 (stereo unspecified)
  Calb biofilm kill: 16

> O=C(CSc1ncn[nH]1)N1N=C(c2ccc(Cl)cc2)CC1c1ccco1 (stereo unspecified)
  Calb biofilm kill: 10
> CN=C1SC(CC(=O)Nc2c(C)cccc2C)C(=O)N1/N=C/c1cccs1 (stereo unspecified)
  Calb biofilm kill: 11
> COc1ccc(-c2cc(-c3ccccc3)n[nH]2)c(O)c1
  Calb biofilm kill: 27
> OCCCCCNc1ncnc2ccccc12
  Calb biofilm kill: 16
> Cc1c(NC(=O)C(C)OC(=O)c2ccc(Br)o2)c(=O)n(-c2ccccc2)n1C (stereo unspecified)
  Calb biofilm kill: 3
> COc1cc(NC(=O)c2ccc(C)c([N+](=O)[O-])c2)ccc1NC(=O)c1ccco1
  Calb biofilm kill: 27
> COC(=O)c1sccc1NC(=O)c1c(-c2ccccc2)noc1C
  Calb biofilm kill: 5
> O=C(c1ccc2ccccc2c1)C1CCCN(C(=O)CN2C(=O)CSC2=O)C1 (stereo unspecified)
  Calb biofilm kill: 6
> CCOc1ccccc1N1CCN(CC(=O)c2c(N)n(C)c(=O)n(C)c2=O)CC1
  Calb biofilm kill: 12
> CCCCCCCCCCCCCCCCn1cc[n+](CC(C)=O)c1
  Calb biofilm kill: 14

Taken from the results shown for reference:
> O=C(CSc1ncn[nH]1)N1N=C(c2ccc(Cl)cc2)CC1c1ccco1 (stereo unspecified)
  Calb biofilm kill: 10
> CN=C1SC(CC(=O)Nc2c(C)cccc2C)C(=O)N1/N=C/c1cccs1 (stereo unspecified)
  Calb biofilm kill: 11
> COc1ccc(-c2cc(-c3ccccc3)n[nH]2)c(O)c1
  Calb biofilm kill: 27
> OCCCCCNc1ncnc2ccccc12
  Calb biofilm kill: 16
> Cc1c(NC(=O)C(C)OC(=O)c2ccc(Br)o2)c(=O)n(-c2ccccc2)n1C (stereo unspecified)
  Calb biofilm kill: 3
> COc1cc(NC(=O)c2ccc(C)c([N+](=O)[O-])c2)ccc1NC(=O)c1ccco1
  Calb biofilm kill: 27
> COC(=O)c1sccc1NC(=O)c1c(-c2ccccc2)noc1C
  Calb biofilm kill: 5

Next section:
> Cc1cnc(C(=O)Nc2ccc(S(=O)(=O)NCC(C)C)cc2)cn1
  Calb biofilm kill: 17
> Cc1cc(N2CCCC2)nc2ccccc12
  Calb biofilm kill: 16
> C/C(=N/NC(=O)CNC(=O)c1cccs1)c1ccco1
  Calb biofilm kill: 14
> COc1ccc(C(=O)OCC(=O)N(C)C2CCS(=O)(=O)C2)cc1S(=O)(=O)N1CCCc2ccccc21 (stereo unspecified)
  Calb biofilm kill: 9
> O=C(C(=O)N1CCN(C(=O)c2ccco2)CC1)c1c[nH]c2ccccc12
  Calb biofilm kill: 23
> CC(OC(=O)c1ccc2c(=O)n3c(nc2c1)CCCCC3)C(=O)Nc1ccc(Cl)cn1 (stereo unspecified)
  Calb biofilm kill: 10
> CC(=O)c1ccc(NC(=S)NC(=O)c2c(Cl)c(C)nn2C)cc1
  Calb biofilm kill: 2
> COc1ccc(OCCNC(=O)CCCO)cc1
  Calb biofilm kill: 8
> Cc1nc2sccn2c1P(c1c(C)nc2sccn12)c1c(C)nc2sccn12
  Calb biofilm kill: 8
> O=C(COC(=O)c1ccc(S(=O)(=O)N2CCOCC2)cc1)NC1CCCCCCC1
  Calb biofilm kill: 12

> Cc1ccc(Cl)cc1NC(=S)NCCCSC1CCCCC1
  Calb biofilm kill: 7
> CN(CCO)C(=O)C1CCN(c2ncc(C(F)(F)F)cc2Cl)CC1
  Calb biofilm kill: -20
> COc1ccc(N2C(=O)/C(=C/c3ccc([N+](=O)[O-])cc3)N=C2C)c(OC)c1
  Calb biofilm kill: 24
> O=[N+]([O-])c1ccc(Cl)c(S(=O)(=O)N2CCCCCC2)c1
  Calb biofilm kill: 11
> COc1ccc(CN(C(=O)c2ccc(-c3ccccc3)[nH]2)C(C(=O)NC(C)(C)C)c2ccncc2)cc1 (stereo unspecified)
  Calb biofilm kill: 30
> CCOC(=O)c1cnc(SCC#N)nc1N
  Calb biofilm kill: 14
> Cc1cccc(NC(=S)NC(=O)c2ccc(Br)o2)c1C
  Calb biofilm kill: 12
> Nc1c(Cl)ncnc1N/N=C/c1ccc2ccccc2n1
  Calb biofilm kill: 16
> CCCCn1c(=O)c(CCC(=O)O)nc2ccccc21
  Calb biofilm kill: -15
> CC(C)C(=O)Nc1nnc(NC(=S)Nc2ccccc2)s1
  Calb biofilm kill: 11

> O=C(Nc1cc(S(=O)(=O)N2CCOCC2)ccc1Cl)c1cc(=O)c2ccccc2o1
  Calb biofilm kill: 25
> Cc1ccc(-c2cc(C(=O)N/N=C/C(Br)=C/c3ccccc3)n[nH]2)o1
  Calb biofilm kill: 11
> CCCC(C)NC(=O)Cc1ccccc1[N+](=O)[O-] (stereo unspecified)
  Calb biofilm kill: 7
> N/C(=N\OC(=O)Cc1ccccc1)c1ccc(Br)cc1
  Calb biofilm kill: 8
> N#C/C(=C\c1ccc([N+](=O)[O-])o1)c1nc2ccccc2[nH]1
  Calb biofilm kill: -1
> C/C(=N\Nc1ccccn1)c1ccc(C(C)C)cc1
  Calb biofilm kill: 4
> CCN1CC(CN(C)Cc2nc(-c3ccc(Cl)cc3)no2)CC1=O (stereo unspecified)
  Calb biofilm kill: 25
> COc1ccccc1NS(=O)(=O)c1cccc(NC(=O)c2[nH]c(C)c(C(C)=O)c2C)c1
  Calb biofilm kill: 12
> CC(=O)Nc1sc(C)c(C)c1C(=O)OCC(=O)Nc1cc(S(=O)(=O)N2CCCCC2)ccc1Cl
  Calb biofilm kill: 14
> O=C(Cn1c(COc2ccc(Cl)cc2)nc2ccccc21)NCC(F)(F)F
  Calb biofilm kill: 14
> CCC[N+](CC#Cc1ccccc1)(CCC)CC(=O)OC
  Calb biofilm kill: 7
> COc1ccccc1Nc1c([N+](=O)[O-])cc(C)cc1[N+](=O)[O-]
  Calb biofilm kill: 18

From PubChem BioAssay
